Screens as filed in PubChem BioAssay.
TAR Tat displ – TAR RNA-Tat peptide displacers, HIV-1, primary screen, biochemical, FRET, FAM/TAMRA-labeled Tat; actives 0.6% (n = 100,000); HIV-1 TAR RNA, Tat peptide displacement FRET; active compounds read high; z-score (test concentration not listed);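 further: score is relative to mean and SD of negative controls; some compounds called inactive have numbers as strong as hits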
CDC25B CDK2 inh – primary biochemical HTRF screen for blockers of M-phase inducer phosphatase 2 binding to CDK2/cyclin A; z-score (no concentration beside the values); actives 0.72% (n = 94,000); AID 1259370, 2018; HTRF CDC25B-CDK2/CyclinA binding, anti-His/anti-Flag; active compounds read high;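 further: score is relative to mean and SD of negative controls; strong numbers were not always called active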
Starred values were filed as active, the others as inactive; / = not tested or not shown.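 How the source made its calls: active means z-score from 3 up in half or more of its runs; inactive means the rest.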

SMILES | TAR Tat displ | CDC25B CDK2 inh
O=C(NCc1cccnc1)C(=O)NCC(c1cccs1)S(=O)(=O)c1cccs1 (stereo unspecified) | 1 | /
Cc1noc(-c2cccnc2NC2CCCC2)n1 | 0.07 | 0.69
O=C(NCCc1ccccc1)Nc1cccc(-c2nnc(Cc3ccc4c(c3)OCO4)o2)c1 | -0.54 | /
COC(=O)C(C)Sc1nc(-c2cccs2)nc2c1c(=O)n(C)c(=O)n2C (stereo unspecified) | / | -0.94
Cc1[nH]c(=O)[nH]c(=O)c1S(=O)(=O)Nc1ccc(F)cc1 | 1.8 | /
C#CCSc1nnnn1-c1ccc(Br)c(C)c1 | / | -1.4
COCCNC(=O)CCc1nnc2ccc(NCc3ccco3)nn12 | 0.84 | /
Cc1nc(N(C)C)cc(N2CCN(S(=O)(=O)c3ccc(F)cc3)CC2)n1 | 0.73 | -0.91
CCOc1cc(C2C(C(=O)OC)=C(C)NC3=C2C(=O)c2ccccc23)ccc1O (stereo unspecified) | -0.3 | -2
Cc1ccc(C)c(NC(=O)N2CCCC2c2ccco2)c1 (stereo unspecified) | 0.64 | -2.9
Cc1ccccc1N1OC2C(=O)N(c3ccccc3)C(=O)C2C1c1cccs1 (stereo unspecified) | -0.42 | -0.87
CCOc1ccccc1OCc1nn2c(-c3ccncc3)nnc2s1 | 1.6 | -0.24
Cc1cc(C)n2ncc(C(=O)NCCC3=CCCCC3)c2n1 | 0.84 | /
COc1ccc(Nc2c(C)c(C)nc3ncnn23)cc1Cl | 1 | /
c1cncc(-c2nc3c4ccccc4nc(NCCCN4CCCCC4)n3n2)c1 | -0.17 | 1.4
O=C(CCc1nc2sc3c(c2c(=O)[nH]1)CCCC3)Nc1ccc(F)cc1F | -7.7 | /
Cc1ncc(-c2ccc(C)c(S(=O)(=O)N3CCOCC3)c2)o1 | 1.7 | /
C/C(=N\Nc1c(Cl)cc(Cl)cc1Cl)c1oc(C)nc1C | / | -2.1
COc1ccc(CNc2oc(-c3ccc(COc4ccc(C)cc4)o3)nc2C#N)cc1 | 0.38 | -0.12
Cc1cccc(-c2csc(-c3nc(-c4ccccc4)no3)c2-n2cccc2)c1 | -1.4 | -2.3
CSc1ccc(-c2nc3ncccn3c2Nc2ccc3c(c2)OCO3)cc1 | / | -2
COc1ccc(NC(=O)CSCc2cc(=O)n3nc(C(C)C)sc3n2)cc1 | 0.66 | /
CCC(C(=O)N1CCCC1)n1nc(C)n2c(cc3occc32)c1=O (stereo unspecified) | 0.75 | 1.6
Cc1ccccc1Cn1c(C)c(C2CCN(S(=O)(=O)c3cnc[nH]3)CC2)c2ccccc21 | 0.62 | /
Fc1ccc(N2CCN(c3nc4ccc(Cl)cc4n4cnnc34)CC2)cc1 | -0.92 | -1.2

Going on with the list:
SMILES | TAR Tat displ | CDC25B CDK2 inh
COc1ccc(C2Oc3c(OC)cccc3C3CC(c4cccnc4)=NN32)cc1 (stereo unspecified) | / | -2.4
O=C(CN1C(=O)c2ccccc2S1(=O)=O)c1ccccc1 | / | -0.97
COc1ccc(OC)c(Nc2nc(-c3ccccc3)no2)c1 | 2 | /
Cc1ccc2[nH]cc(C(c3ccccc3)c3cccs3)c2c1 (stereo unspecified) | 0.91 | -1.1
N#CC1=C(SCC(=O)Nc2ccc(Br)cc2)NC(=O)CC1c1cccs1 (stereo unspecified) | 1.6 | -0.09
Cc1ccc(-c2nc(SCC(=O)N3CCCc4ccccc43)n3[nH]c(=O)cc3n2)cc1 | 1 | /
CC(C)c1ccc(Nc2c(-c3ccc(Cl)cc3)c(=O)c2=O)cc1 | 0.51 | /
O=c1oc2ccc(Br)cc2cc1-c1csc(-c2cc3cc(Cl)cc(Cl)c3oc2=O)n1 | / | 0.11
CN(Cc1ccccc1)C(=O)c1cc2c(s1)-c1ccccc1SC2 | -0.5 | -1.6
Cc1sc(-n2cccc2)c(C(C)NC(=O)Nc2ccccc2Br)c1C (stereo unspecified) | -0.52 | -2
CCc1ccc(N(CC)c2ncnc3nc[nH]c23)cc1 | / | 0.93
C=CCOC(=O)C1=C(C)Nc2nc(SCCC)[nH]c(=O)c2C1c1ccccc1 (stereo unspecified) | 0.53 | -0.36
CCCCc1ncc(CO)[nH]1 | / | -0.5
Cc1nc(-c2csc(S(=O)(=O)Nc3cccc(Cl)c3)c2)no1 | 2.1 | /
CC(=O)N1c2ccc(S(=O)(=O)NC(C(=O)Nc3cccc(C)n3)C(C)C)cc2CC1C (stereo unspecified) | 0.27 | /
Cc1nnsc1C(=O)Oc1ccccc1Cl | -0.41 | -0.67
COc1ccc(N2C(=O)CC(Nc3ccc(O)cc3)C2=O)cc1 (stereo unspecified) | 0.07 | -1.6
N#Cc1ccc(Oc2nc3cc(Cl)ccc3s2)cc1 | / | -0.18
Cn1nc(-c2ccc(S(=O)(=O)NC3CCCCNC3=O)s2)cc1C(F)(F)F (stereo unspecified) | / | -1.1
CCCS(=O)(=O)N1CCN(C2Cc3ccccc3C2)CC1 | 0.44 | 0.54
c1ccc2c(c1)nc(Nc1ccc3c(c1)OCO3)n1cnnc21 | 0.34 | /
CN(CC(=O)NCCC1=CCCCC1)c1nnc(N2CCCC2=O)s1 | 0.98 | -0.53
COc1ccc(C2=NN(S(C)(=O)=O)C(c3cn(-c4ccccc4)nc3-c3ccccc3)C2)cc1 (stereo unspecified) | -0.9 | -3.5
NC(=O)CSc1nc2ccccc2n1CCO | 1.2 | 0.58
Cc1nc2c(c(C)nn2C)c(C)c1CCC(=O)N1CCCC1 | -0.31 | -0.22

More entries follow:
SMILES | TAR Tat displ | CDC25B CDK2 inh
O=C(NCCC1=CCCCC1)c1cnn(-c2ccc(F)cc2)c1-n1cccc1 | 0.06 | /
Cc1cccc(Nc2ccncc2S(=O)(=O)NC(=O)NC(C)C)c1 | 1.8 | /
CCN(CC)c1nc(SCCOC(=O)Nc2ccccc2)nc(N(CC)CC)n1 | / | -2.4
CCS(=O)(=O)N1CCC(c2nnnn2-c2ccc(C)cc2)CC1 | -0.43 | -0.41
CC(C)c1ccc(NS(=O)(=O)c2cccs2)cc1 | -0.28 | -0.43
O=C(O)c1ccccc1SCc1cc(=O)n2c3c(sc2n1)CCCC3 | -0.32 | -0.78
O=C(OCCOc1ccc(Cl)cc1Cl)c1ccc([N+](=O)[O-])o1 | / | 0.11
Nc1nonc1C(=O)NCCNCc1ccc(Br)cc1 | 0.72 | -1.1
CCS(=O)(=O)c1nc(S(=O)(=O)c2ccc(C)cc2)c(NCCc2ccccc2)s1 | 1.1 | -0.73
COc1cc2c(cc1OC)C1N(CC2)C(C(=O)c2cccs2)=NN1c1ccccc1 (stereo unspecified) | / | -0.52
Ic1ccc(-c2csc(Nc3ccc4c(c3)OCO4)n2)cc1 | / | -1.4
COC(=O)c1cc2occc2n1Cc1nc(-c2ccc(C)cc2)oc1C | 1.9 | -0.76
O=C(NCCCN1CCOCC1)c1cnc(N2CCCC2)nc1 | 0.58 | /
O=c1c2cccnc2n(Cc2ccc(Cl)cc2)c(=O)n1Cc1ccc2c(c1)OCO2 | -0.98 | -1.5
NC1=NC(=O)CC(C(=O)Nc2ccc(Br)cc2)S1 (stereo unspecified) | 0.45 | -0.74
Cc1cccc(Cl)c1NC(=O)CC#N | / | -1.8
COc1ccc(OC)c(C2C(C#N)=C(C)NC3=C2C(=O)CC(C)(C)C3)c1 (stereo unspecified) | 0.71 | -0.04
O=C(NCc1cccs1)c1cnn2c(C(F)(F)F)cc(-c3ccc4c(c3)OCO4)nc12 | -1.3 | -1.3
C/C(NNc1ncc(C(F)(F)F)cc1Cl)=C(/C#N)C(N)=S | / | -0.88
COc1cccc(-c2nnc(SCc3ccccc3C)o2)c1 | 1.2 | -0.43
Cc1nnc(SCc2ccc(Cl)cc2)c2cc3occc3n12 | -1.3 | /
Cc1cc2ncn(CCCCOc3ccccc3)c2cc1C | 2.2 | -1.1
COc1cc2c(cc1OC)C1=NNC(=O)C1=NC(C)(C)C2 | 1.7 | -3.8
O=S(=O)(Nc1ccc(F)cc1Cl)c1cccc2cccnc12 | / | 0.57
CC(C)c1ccc(Nc2c(-c3ccsc3)nc3cnccn23)cc1 | / | -1.1

Quoted from the listing for reference:
SMILES | TAR Tat displ | CDC25B CDK2 inh
O=S(=O)(Nc1ccc(F)cc1Cl)c1cccc2cccnc12 | / | 0.57
CC(C)c1ccc(Nc2c(-c3ccsc3)nc3cnccn23)cc1 | / | -1.1

Remaining list, next part
SMILES | TAR Tat displ | CDC25B CDK2 inh
O=C(NC1(C(F)(F)F)C(=O)Nc2c1c(=O)[nH]c(=O)n2-c1ccc(F)cc1)c1cccs1 (stereo unspecified) | / | -0.49
CCC(CC)C(=O)Nc1ccccc1SCc1cc(=O)n2c(C)csc2n1 | 0.22 | /
Cc1cccc(-c2nc(Cn3cnc4onc(C)c4c3=O)c(C)o2)c1 | 1 | /
COc1ccc(-n2nc(C(=O)N(C)c3ccc(OC)cc3OC)c3c4ccccc4n(C)c3c2=O)cc1 | -0.69 | -0.84
Cc1cc(NCc2ccccc2)n2nc(C)c(-c3ccc(F)cc3)c2n1 | -0.93 | -2.2
CCOc1ccc(-n2c(=O)[nH]c3sc4c(c3c2=O)CCC4)cc1 | / | -1
Brc1ccccc1CN1CCC(N2CCCCCC2)CC1 | / | -0.46
CCOC(=O)c1sc2nc(C)nc(Oc3ccc(OCC)cc3)c2c1C | -0.13 | /
Cc1nc2sc(-c3ccccc3)cc2c(=O)o1 | / | -1.9
CN(C)c1cccc(N(C)C)c1CNC(=O)c1ccccc1Cl | / | -1.3
CC(C)c1ccc(-c2noc(SCC(=O)N3CCc4ccccc43)n2)cc1 | 2.5 | /
O=C(CSCC(=O)N1CCCCC1)Nc1nc(-c2cccs2)cs1 | -0.3 | /
Cc1nn(-c2ccccc2)c2sc(C(=O)NCc3cccnc3)cc12 | / | -2.6
CC(C)c1ccc(NC(=S)N2CCCC(c3ccc(F)cc3)=N2)cc1 | / | -1
O=C1NC2(O)C(=O)c3ccccc3C2(O)N1 (stereo unspecified) | / | 0.42
COc1ccccc1-c1nc(S(=O)(=O)c2ccc(Br)cc2)c(N2CCOCC2)o1 | 0.66 | -1.4
COc1ccc(C2CC(=O)C3=C(C2)NC(C)=C(C(=O)OC(C)C)C3c2ccccc2F)cc1OC (stereo unspecified) | 2.3 | -1.8
O=C(Nc1nccs1)c1csnn1 | 0.45 | 0.62
CCOC(=O)c1cn[nH]c1S(=O)(=O)Nc1cc(OC)ccc1OC | 0.45 | /
Cn1cc(-c2cc3n(n2)CCC(=O)N3CC(=O)NC2CCCc3ccccc32)c2ccccc21 (stereo unspecified) | 6.5 | /
CCC(C(=O)Nc1ccc(Br)c(C)c1)n1c2ccccc2c2nc(=O)cc(C)n21 (stereo unspecified) | -1.5 | -0.55
Cn1c(=O)c2c(nc(SCc3ccc(F)cc3)n2C)n(C)c1=O | 0.5 | 0.1
COc1ccc(CC(=O)Nc2nnc3n2CCS3)cc1 | -0.02 | /
O=C(NCC1CCCO1)C1CCN(S(=O)(=O)c2ccc3[nH]c(=O)ccc3c2)CC1 (stereo unspecified) | 1.2 | /
O=C(O)Cn1ccc2cc(S(=O)(=O)N3CCCCC3)ccc21 | 1.1 | -0.65

Record cards (already shown). Order of values: TAR Tat displ, CDC25B CDK2 inh
`O=C(CSCC(=O)N1CCCCC1)Nc1nc(-c2cccs2)cs1` as listed: -0.3, /
`O=C(NC1(C(F)(F)F)C(=O)Nc2c1c(=O)[nH]c(=O)n2-c1ccc(F)cc1)c1cccs1` (stereo unspecified) as listed: /, -0.49
`Cc1cc(NCc2ccccc2)n2nc(C)c(-c3ccc(F)cc3)c2n1` as listed: -0.93, -2.2
`Cn1cc(-c2cc3n(n2)CCC(=O)N3CC(=O)NC2CCCc3ccccc32)c2ccccc21` (stereo unspecified) as listed: 6.5, /
`CC(C)c1ccc(NC(=S)N2CCCC(c3ccc(F)cc3)=N2)cc1` as listed: /, -1

Other compounds follow:
SMILES | TAR Tat displ | CDC25B CDK2 inh
COc1cc(NC(=O)CSCC(=O)O)c(C(=O)O)cc1OC | / | -1.4
COC(=O)c1ccc([C@@H]2Nc3c(F)cccc3[C@@H]3C=CC[C@@H]32)cc1 | -1.7 | 2.8
COc1ccc(C2CC(=O)NC3=C2C(=O)CC(c2ccc(OC)c(OC)c2)C3)c(OC)c1 (stereo unspecified) | 2.3 | -1.2
COC(=O)c1ccc(C2SCC(=O)N2CCc2ccccc2)cc1 (stereo unspecified) | / | -0.47
COC(=O)c1c(NC(=O)Cn2nc(C(F)(F)F)cc2C)sc2c1CCC(C)C2 (stereo unspecified) | 1.2 | /
CCN(CC)CCNC(=O)Cn1ncc2ccsc2c1=O | 0.46 | -1.1
O=C(Cn1nc2c3scc(-c4ccc(F)cc4)c3ncn2c1=O)Nc1ccccc1F | 1.2 | /
CC1=CC(C)(C)N(S(=O)(=O)c2ccc(C)cc2)c2ccc(Cl)cc21 | 2.4 | -1.7
CCOc1ccc(CNS(=O)(=O)c2cc(-c3cc(C)no3)ccc2C)cc1 | -0.27 | /
COc1ccc(NC(=O)CN2N=NC3C(=O)N(c4ccc(Br)cc4)C(=O)C32)cc1Cl (stereo unspecified) | 0.91 | /
O=C(O)CCCC(=O)c1c[nH]c2ccccc12 | 0.87 | -0.79
NN=C1c2ccccc2-c2ccccc21 | / | -2.9
N#CC(C#N)=CNc1cccc(NC(=O)c2cccc(Cl)c2)n1 | / | -2.9

Structures listed so far that have a COOH group:
SMILES | TAR Tat displ | CDC25B CDK2 inh
O=C(O)c1ccccc1SCc1cc(=O)n2c3c(sc2n1)CCCC3 | -0.32 | -0.78
O=C(O)Cn1ccc2cc(S(=O)(=O)N3CCCCC3)ccc21 | 1.1 | -0.65
COc1cc(NC(=O)CSCC(=O)O)c(C(=O)O)cc1OC | / | -1.4
O=C(O)CCCC(=O)c1c[nH]c2ccccc12 | 0.87 | -0.79
